# CSC inhib: cancer stem cell viability inhibitors, primary screen, luminescence; 300,000 tested, 1.1% active; AID 2717, 2010; inhibition, % at 7.5 µM; cancer stem cell-like cells viability;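 active = mean at 75% or more and at least half the replicates too; tested in HMLE shEcad cells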;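 note: 0% = median of negative and 100% = median of positive control wells; the first replicate is given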
# eIF4H FP inh: human eIF4H binding inhibitors, primary screen, translation initiation inhibitor project, biochemical, uHTS, fluorescence polarization | inhibition, % at 35 µM | AID 2012, 2009 | 290,000 tested, 0.94% active | eIF4H fluorescence polarization binding assay;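 active = 50% or more with normal probe brightness, or confirmed in later tests; about a fifth of its hits are not listed in these tables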;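 note: calls also rest on retests at 20 µM and on dose response follow-up; 0% = protein and probe with vehicle and 100% = probe without protein; strong numbers were not always called active; many hits fall short of the cut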
# UUG fidelity: modulators of yeast start codon fidelity, primary screen, whole organism, S. cerevisiae, single point, plate reader | 350,000 tested, 0.13% active | AID 602363, 2012 | activity score, % at 18.7 µM | S. cerevisiae UUG-firefly luciferase reporter, luminescence/redox ratio;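 active = replicate mean at a twofold rise or more, about +100% in these data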;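 note: firefly luciferase made from a UUG start codon reports start codon fidelity; reporter light over untreated wells divided by growth signal over untreated wells; some hits fall short of that in this replicate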
# MT1-MMP act inh: blockers of MT1-MMP proenzyme processing, primary screen, HT1080 RFP-PRO-GFP cells, GFP/RFP fluorescence; 360,000 tested, 0.061% active; GFP/RFP ratio fluorescence, overnight; percent of plate control window, DMSO zero; GFP/RFP ratio change, % at 20 µM; Matrix metalloproteinase-14 (Homo sapiens), P50281;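 active = GFP/RFP ratio change of at least 30% with cell ATP level not reduced by more than half and red fluorescence within 50% of control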; note: strong numbers were not always called active
#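 Assay system: RFP-PRO-GFP reporter HT1080 cells; read-out basis: GFP/RFP fluorescence ratio; benchmarks: DMSO wells and RFP-L50D-GFP cells; doses: 20 µM single dose, 1% DMSO; schedule: overnight cell settling, then overnight compound exposure, 37 °C, 5% CO2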
# Env fusion inh: inhibitors of HIV-1 Env-driven cell-cell fusion, primary screen, HeLa-JRFL effector, CEM21 target cells, luciferase; inhibition, % at 12.3 µM; 360,000 tested, 1.1% active;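 active = mean replicate inhibition score of at least 50 and every replicate individually at or above 50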;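 note: 0% = plate neutral controls and 100% = maraviroc near 300 nM; one replicate is shown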
# PABP FP inh: PABP poly(A) RNA binding inhibitors, primary screen, biochemical, fluorescence polarization, uHTS. AID 2014, 2009. inhibition, % at 35 µM. 290,000 tested, 1% active;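 active = 50% or more with normal probe brightness, or confirmed in later tests; about a fifth of its hits are not listed in these tables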;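 note: calls also rest on retests at 20 µM and on dose response follow-up; controls were probe without protein and protein plus probe with vehicle; some compounds called inactive have numbers as strong as hits; many hits fall short of the cut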
# Target sequence (P11940 whole entry, looked up): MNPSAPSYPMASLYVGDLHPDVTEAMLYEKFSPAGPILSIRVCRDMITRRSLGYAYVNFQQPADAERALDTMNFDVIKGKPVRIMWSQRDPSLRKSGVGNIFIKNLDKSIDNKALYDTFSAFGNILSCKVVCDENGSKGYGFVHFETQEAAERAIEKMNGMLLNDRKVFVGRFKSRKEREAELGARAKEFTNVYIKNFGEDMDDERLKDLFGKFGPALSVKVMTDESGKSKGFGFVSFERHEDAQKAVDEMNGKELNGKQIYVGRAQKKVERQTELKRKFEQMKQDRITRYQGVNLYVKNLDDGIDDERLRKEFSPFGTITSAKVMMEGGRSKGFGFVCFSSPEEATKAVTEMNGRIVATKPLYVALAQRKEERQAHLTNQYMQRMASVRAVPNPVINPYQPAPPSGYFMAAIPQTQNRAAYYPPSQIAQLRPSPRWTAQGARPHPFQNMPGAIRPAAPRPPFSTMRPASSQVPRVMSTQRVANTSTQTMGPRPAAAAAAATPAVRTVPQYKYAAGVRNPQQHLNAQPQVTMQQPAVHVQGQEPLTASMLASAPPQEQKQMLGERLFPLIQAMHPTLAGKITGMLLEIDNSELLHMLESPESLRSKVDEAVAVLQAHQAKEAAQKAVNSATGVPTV
# Rce1 inh: yeast Rce1p protease inhibitors, primary screen, biochemical, fluorescence, cell-free homogeneous; CAAX prenyl protease 2 (Saccharomyces cerevisiae (strain ATCC 204508 / S288c)), Q03530; yeast membranes, quenched prenylated peptide cleavage fluorescence; calls only; 290,000 tested, 0.27% active; AID 2563, 2010;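 active = fall in fluorescence gain of 50% or more versus controls, with final raw signal at or below 3038400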;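 note: plate controls were neutral control wells for no effect and wells lacking membranes for full effect; tested at 10 µM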
# Target sequence (Q03530 whole entry, looked up): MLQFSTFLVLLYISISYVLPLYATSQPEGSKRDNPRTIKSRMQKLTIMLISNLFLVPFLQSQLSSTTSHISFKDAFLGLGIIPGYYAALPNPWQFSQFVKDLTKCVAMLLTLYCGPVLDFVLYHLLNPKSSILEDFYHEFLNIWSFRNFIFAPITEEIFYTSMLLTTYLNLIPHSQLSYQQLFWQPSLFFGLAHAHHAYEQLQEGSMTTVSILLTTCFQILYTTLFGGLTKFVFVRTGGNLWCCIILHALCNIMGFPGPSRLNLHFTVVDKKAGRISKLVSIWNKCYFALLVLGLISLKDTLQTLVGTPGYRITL
# MT1-MMP act inh RFP: further read-out of MT1-MMP act inh, marked with its call; RFP signal change, %; measured here: RFP expression control read;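 0 = vehicle wells; hits needed this value within 50% of zero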
# An asterisk follows results filed as active; i = inactive; . = not tested or not shown; & = joins results of further samples. This is a random part of the collection; overall some 2.9% were active at least once.
SMILES,CSC inhib,eIF4H FP inh,UUG fidelity,MT1-MMP act inh,MT1-MMP act inh RFP,Env fusion inh,PABP FP inh,Rce1 inh
CC1CC(C)CN(C(=O)c2ccc3c(c2)N(Cc2ccccc2)CCS3)C1 (stereo not given),34.2,-0.6,-18.1,-6.0,-12.7,.,3.5,i
COC1(OC)N=C(N)C2(C#N)C(c3ccccc3)NC(C)=CC12C#N (stereo not given),-4.0,-9.7,.,-0.9,2.1,.,-4.5,i
N#CCCCC#Cc1ccc2c(c1)COc1c3ccccc3nn1-2,35.3,.,-52.8,1.4,-16.4,-70.3,.,i
COc1ccc(OC)c(N/C(C)=C/C(=O)c2ccc(C)o2)c1,3.2,-3.1,-9.9,-1.4,5.3,-38.3,-7.9,i
CN=C(Nc1cc(Cl)ccc1Cl)SC1CC(=O)N(c2ccc(C(=O)OC)cc2)C1=O (stereo not given),6.8,8.1,-4.6,0.8,1.5,.,6.5,i
CC1CCN(c2nc3ccccc3n2CC(=O)c2ccccc2)CC1,5.0,-5.8,.,-9.8,-9.3,16.9,-4.1,i
Cc1cc(C)n(C(C)n2nc(C)cc2C)n1,-6.3,-15.1,-23.3,-1.8,4.5,-39.2,9.1,i
Cc1ccc(C(=O)NCCc2nnc3ccc(SCC(=O)N4CCCCC4)nn23)cc1,3.0,-3.6,1.6,-4.7,1.3,51.8,41.7,i
CC(C)CC(=O)Nc1ccc2ccccc2c1,-16.0,-3.8&-3.6,.,2.7,3.9,-8.2,-0.9&14.7,i
COc1ccc(C(=O)Nc2ccc(N3CCN(C(=O)c4ccccc4)CC3)cc2)cc1[N+](=O)[O-],-8.4,-0.4,.,-7.2,-12.4,-13.9,-2.8,.
COc1ccc(NC(=O)Nc2nc(C(N)CC(C)C)cs2)cc1 (stereo not given),.,.,-8.8,0.8,1.5,7.4,.,.
Cc1c(C(=O)NCCSCc2cccc(C(F)(F)F)c2)cnn1-c1ccc(Cl)cc1,-3.2,-17.3,-15.3,-0.3,-10.6,26.5,-12.2,i
CC1=CC(C)(C)NC(=S)N1NC(=O)c1ccccc1Cl,-4.3,-10.5,.,-1.5,2.9,-9.1,-3.3,i
COc1ccc(OCCCC(=O)N(C)CC(=O)Nc2ccccc2Cl)cc1,-4.3,-1.7,-6.0,0.4,-1.6,.,-0.6,i
CC1CCCCC1NCc1cccc([N+](=O)[O-])c1 (stereo not given),10.7,4.3,.,0.8,0.3,-2.3,0.4,i
COc1ccc(CC(=O)NC2CCSc3ccccc32)c(OC)c1 (stereo not given),-2.5,6.7,-10.0,4.3,1.9,-29.7,5.2,i
N#Cc1nc(-c2ccc(OCc3ccccc3)cc2)oc1NCc1cccnc1,52.5,-6.2,-5.8,1.1,-10.1,.,-1.4,i
Cc1cc2c(ncn2C)c(NS(=O)(=O)c2ccccc2Cl)c1C,9.3,-17.6,-15.8,3.2,7.6,-28.1,-10.4,i
COc1ccc(C(=O)Nc2cc(C(F)(F)F)ccc2Cl)cc1OC,9.5,-7.5,-23.2,2.5,-1.0,-31.2,2.2,i
COC(=O)c1ccc(-c2ccco2)n1Cc1ccccc1Cl,10.4,2.8,-23.1,-6.4,-1.4,-9.3,-1.0,i
S=c1[nH]nc(C2CCCCC2)n1/N=C/c1c(Cl)cccc1Cl,35.5,4.1,-26.0,0.1,1.1,-10.8,0.0,i
COc1ccc(CCC(=O)NNC(=O)Nc2cc(Cl)ccc2C)cc1,-4.4,6.4,-12.3,1.7,2.4,-11.2,-2.6,i
CC(=O)NC(c1ccc(F)c(F)c1)c1nc(-c2cnc3ccccc3c2)cs1 (stereo not given),.,.,-5.0,6.4,-0.3,-6.7,.,.
O=C(Nc1cccc(C(=O)O)c1)/C(=C\c1ccccc1)NC(=O)c1ccccc1,-7.1,-11.3,1.4,-0.1,0.0,-0.2,1.5,i
Cc1ccc(C)c(NC(=O)c2oc(=O)c3ccccc3c2-c2ccccc2)c1,24.8,0.3,.,-3.7,-3.2,-2.4,0.0,i
SMILES,CSC inhib,eIF4H FP inh,UUG fidelity,MT1-MMP act inh,MT1-MMP act inh RFP,Env fusion inh,PABP FP inh,Rce1 inh
O=S(=O)(c1ccc(Cl)cc1)c1nc(-c2ccco2)oc1N1CCOCC1,-10.7,4.2,.,-2.7,-0.8,-35.3,14.3,i
COCCNC(=O)C(=O)NNC(=O)CCc1ccccc1,.,-7.3,.,0.2,5.3,-2.5,3.0,i
CCOC(=O)c1cc(C)n(-c2ccc(OC)c(OC)c2)c1C,32.9,1.6,23.2,5.9,5.6,.,4.8,i
COc1cccc(N2CC(O)Cn3c2nc2c3c(=O)[nH]c(=O)n2C)c1 (stereo not given),6.1,2.1,-7.0,-0.4,2.4,11.1,-0.3,i
CCNc1c(NS(=O)(=O)c2ccc([N+](=O)[O-])cc2)c(=O)oc2ccccc12,3.8,-3.3,-12.3,1.5,1.3,-2.6,5.8,i
COc1ccccc1C(CNC(=O)C1CC(=O)N(Cc2ccc(C)cc2)C1)N1CCCC1 (stereo not given),-5.3,.,-6.5,3.4,0.9,-0.5,.,i
CCN=C1SC(CC(=O)Nc2ccccc2OCC)C(=O)N1CC (stereo not given),-6.5,7.1,-16.7,-0.5,2.1,-9.1,6.4,i
c1ccc2nc3c(nc2c1)c1ccccc1n3CCN1CCOCC1,-1.2,-2.7,.,4.6,1.6,-20.6,3.5,i
COc1ccc2oc(C(=O)Nc3nc4ccccc4[nH]3)c(C)c2c1,27.4,17.6,-38.0,6.1,-7.1,i,0.7,i
N#Cc1ccc(C(=O)Nc2ccc(S(=O)(=O)NC3=NCCCCC3)cc2)cc1,5.6,8.0,.,3.7,-4.6,.,1.2,i
O=c1oc2ccc(NS(=O)(=O)c3cccc4cccnc34)cc2s1,.,-7.8,-4.9,2.4,0.7,0.9,10.5,i
COc1cccc2ccc(CC(O)(c3ccccc3)c3ccccc3)nc12,.,.,0.1,0.7,-5.3,-0.7,.,.
COC(=O)N/N=C/c1cn(CC(C)COc2ccccc2)c2ccccc12 (stereo not given),25.0,-7.6,-4.2,-0.2,-28.4,5.1,37.2,i
O=C(COC(=O)CCN1C(=O)C2CC=CCC2C1=O)NCCc1ccccc1 (stereo not given),-8.9,-10.9,-8.9,-2.7,-1.0,3.2,-2.5,i
CN1CC(=O)NC1=NC(=O)c1ccc(Cl)c(S(=O)(=O)N2CCCCCC2)c1,15.8,6.6,-13.5,1.4,1.7,.,4.8,i
Cc1coc2c1c(C)cc1oc(=O)c(CC(=O)NCCC(=O)O)c(C)c12,2.0,-2.6,-6.3,4.3,2.1,-0.4,7.7,i
Cc1ccc(-n2nnc3c(=O)n(CC(=O)N4CCOCC4)cnc32)cc1,-4.3,-2.7,-3.3,-0.2,1.9,0.4,-6.0,i
CC(CC(=O)N1CCN(c2ccc(C(F)(F)F)cn2)CC1)n1ccnc1 (stereo not given),-4.9,-8.1,.,9.2,5.3,12.8,-0.5,i
Cc1ccc(S(=O)Cc2ccc(C(=O)N3CCN(C(=O)c4ccco4)CC3)o2)cc1 (stereo not given),-4.7,-18.3,-6.5,-0.1,0.2,1.1,6.7,i
CCOC(=O)C1=C(c2ccccc2)OC(N)=C(C#N)C1c1ccco1 (stereo not given),-1.6,-0.2,10.9,0.5,6.0,8.3,4.5,i
CC(C)CNS(=O)(=O)c1ccc(CCC(=O)N2CCCC2)cc1,-2.7,11.7,.,-0.7,0.2,17.6,1.5,i
O=C1Nc2ccccc2C(=O)N2[C@H](c3ccc(F)cc3)[C@@H]3C(=O)N(Cc4ccccc4)C(=O)[C@@H]3[C@H]12,-4.7,14.7,-4.8,-3.9,-3.7,-8.1,11.0,i
Cc1nnc(SCC(=O)Nc2ccc(N3CCOCC3)cc2)n1-c1ccccc1,-11.5,7.3,.,-1.6,3.0,.,-2.6,i
Fc1ccccc1CN1CCCCCCC1,0.4,-1.2,-2.5,3.1,9.0,-55.3,16.5,i
O=C1C(=O)N(c2ccc(O)cc2)C(c2ccccc2[N+](=O)[O-])/C1=C(\O)c1ccccc1 (stereo not given),-11.5,-6.4,-8.4,0.2,4.3,-8.8,-5.8,i

# Sorted by the number under MT1-MMP act inh (lowest first): some entries from above
smiles,UUG fidelity,MT1-MMP act inh,MT1-MMP act inh RFP,Env fusion inh,Rce1 inh
COc1ccc(OCCCC(=O)N(C)CC(=O)Nc2ccccc2Cl)cc1,-6.0,0.4,-1.6,.,i
COc1ccc(CC(=O)NC2CCSc3ccccc32)c(OC)c1 (stereo not given),-10.0,4.3,1.9,-29.7,i
CCOC(=O)c1cc(C)n(-c2ccc(OC)c(OC)c2)c1C,23.2,5.9,5.6,.,i

# Single records, as listed above:
# Record of `CC1CCN(c2nc3ccccc3n2CC(=O)c2ccccc2)CC1` → CSC inhib: 5.0; eIF4H FP inh: -5.8; UUG fidelity: .; MT1-MMP act inh: -9.8; MT1-MMP act inh RFP: -9.3; Env fusion inh: 16.9; PABP FP inh: -4.1; Rce1 inh: i
# Record of `COCCNC(=O)C(=O)NNC(=O)CCc1ccccc1` → CSC inhib: .; eIF4H FP inh: -7.3; UUG fidelity: .; MT1-MMP act inh: 0.2; MT1-MMP act inh RFP: 5.3; Env fusion inh: -2.5; PABP FP inh: 3.0; Rce1 inh: i

# Continued:
SMILES,CSC inhib,eIF4H FP inh,UUG fidelity,MT1-MMP act inh,MT1-MMP act inh RFP,Env fusion inh,PABP FP inh,Rce1 inh
Cc1cccc(CSc2nnc(-c3ccco3)n2C)c1,-4.4,-0.3,-17.7,0.8,3.7,-8.3,-7.2,i
Cc1ccccc1NCc1nc2ccccc2n1C,-5.2,-1.0,-23.4,2.4,1.1,-117.1,-2.5,i
O=C(Cc1ccc(S(=O)(=O)N2CCCC2)s1)Nc1cccc([N+](=O)[O-])c1,6.2,.,5.6,2.0,-0.6,26.3,.,.
CCN(CC)C(=O)[C@H]1C[C@H](CC(=O)NCCCN(C)C)C(=O)N2CCc3c([nH]c4cc(CCC(=O)N(C)C)ccc34)[C@]12C,.,.,4.4,3.9,8.7,-11.5,.,.
O=C(NC(=S)Nc1ccccc1C(F)(F)F)c1ccccc1F,4.1,-1.1,-28.8,-2.7,-0.9,-12.8,-9.0,i
CC(C)CN(C(=O)COC(=O)CCN1C(=O)c2ccccc2C1=O)C1CCS(=O)(=O)C1 (stereo not given),-0.9,-2.9,12.1,-1.3,5.5,18.4,-20.6,i
Cn1c(SCC(=O)Nc2ccc3[nH]c(=O)[nH]c3c2)nnc1-c1ccc(F)cc1,-1.0,13.1,.,-4.5,0.2,-19.6,3.2,i
CNS(=O)(=O)c1cc2c3c(cccc3c1)C(=O)NC2=O,57.1,43.1,-4.4,-2.7,0.6,18.8,8.6,i
Cc1cc(Br)cc(C=Nc2ccc(N3CCOCC3)cc2)c1O,5.0,.,.,1.6,2.3,-19.9,.,i
CCC(C)NC(=O)C1CCN(c2nc(OC)nc(OC)n2)CC1 (stereo not given),.,1.6,-15.0,-2.4,-4.5,-11.1,-8.4,i
CCNC(=O)COc1ccc(/C=C2\COc3ccccc3C2=O)cc1OC,10.8,12.5,6.0,-18.1,-23.7,8.3,7.6,.
CCOC(=O)C1CCN(C(=O)Cc2ccc(C)cc2)CC1,1.0,-3.4,-12.5,-5.3,0.5,6.5,-4.4,i
CC(C)CN(C(=O)COC(=O)CN1C(=O)c2ccccc2C1=O)c1c(N)n(Cc2ccccc2)c(=O)[nH]c1=O,-2.4,.,.,4.5,4.7,-6.7,.,i
CCOc1ccc(N2C(=O)C(CC(=O)Nc3ccc(F)cc3)N(Cc3ccccn3)C2=S)cc1 (stereo not given),-0.2,-2.2,.,0.6,-3.3,-8.2,10.6,i
O=c1cc(O)c(-c2cccc(C(F)(F)F)c2)c(Cl)[nH]1,-1.1,5.6,.,-3.7,2.3,-9.3,3.8,i
